Screens as filed in PubChem.
MT1-MMP act inh: blockers of MT1-MMP proenzyme processing, primary screen, HT1080 RFP-PRO-GFP cells, GFP/RFP fluorescence; 360,000 tested, 0.061% active; AID 651647, 2012; GFP/RFP ratio fluorescence, overnight; percent of plate control window, DMSO zero; GFP/RFP ratio change, % at 20 µM; Matrix metalloproteinase-14 (Homo sapiens), P50281;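 active = GFP/RFP ratio change of at least 30% with cell ATP level not reduced by more than half and red fluorescence within 50% of control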; also: strong numbers were not always called active
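system = RFP-PRO-GFP reporter HT1080 cells | dosing = 20 µM single dose, 1% DMSO | timing = overnight cell settling, then overnight compound exposure, 37 °C, 5% CO2 | read-out basis = GFP/RFP fluorescence ratio | controls = DMSO and RFP-L50D-GFP cell wells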
HIV Env fusion: inhibitors of HIV-1 Env-driven cell-cell fusion, primary screen, HeLa-JRFL effector, CEM21 target cells, luciferase; AID 651610, 2012; inhibition, % at 12.3 µM; 360,000 tested, 1.1% active;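 active = mean replicate inhibition score of at least 50 and every replicate individually at or above 50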;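 also: 0% = plate neutral controls and 100% = maraviroc near 300 nM; one replicate is shown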
Yeast UUG start: modulators of yeast start codon fidelity, primary screen, whole organism, S. cerevisiae, single point, plate reader; S. cerevisiae UUG-firefly luciferase reporter, luminescence/redox ratio; activity score, % at 18.7 µM; 350,000 tested, 0.13% active;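 active = replicate mean at a twofold rise or more, about +100% in these data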;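 also: firefly luciferase made from a UUG start codon reports start codon fidelity; reporter light over untreated wells divided by growth signal over untreated wells; some hits fall short of that in this replicate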
Rce1 inh: yeast Rce1p protease inhibitors, primary screen, biochemical, fluorescence, cell-free homogeneous; CAAX prenyl protease 2 (Saccharomyces cerevisiae (strain ATCC 204508 / S288c)), Q03530; yeast membranes, quenched prenylated peptide cleavage fluorescence; calls only; 290,000 tested, 0.27% active;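 active = fall in fluorescence gain of 50% or more versus controls, with final raw signal at or below 3038400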;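 also: plate controls were neutral control wells for no effect and wells lacking membranes for full effect; tested at 10 µM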
Target sequence (Q03530 whole entry, looked up): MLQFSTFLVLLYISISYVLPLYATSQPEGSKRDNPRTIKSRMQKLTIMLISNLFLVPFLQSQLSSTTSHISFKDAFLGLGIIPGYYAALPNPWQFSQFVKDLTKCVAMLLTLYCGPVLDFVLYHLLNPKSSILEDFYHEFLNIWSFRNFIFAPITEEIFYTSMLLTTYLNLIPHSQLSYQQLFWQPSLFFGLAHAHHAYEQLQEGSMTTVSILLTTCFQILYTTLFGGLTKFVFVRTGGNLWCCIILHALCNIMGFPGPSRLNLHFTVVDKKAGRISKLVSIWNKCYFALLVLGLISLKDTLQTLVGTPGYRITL
eIF4H inh: human eIF4H binding inhibitors, primary screen, translation initiation inhibitor project, biochemical, uHTS, fluorescence polarization; eIF4H fluorescence polarization binding assay; inhibition, % at 35 µM; 290,000 tested, 0.94% active; AID 2012, 2009;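 active = 50% or more with normal probe brightness, or confirmed in later tests; about a fifth of its hits are not listed in these tables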;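 also: calls also rest on retests at 20 µM and on dose response follow-up; 0% = protein and probe with vehicle and 100% = probe without protein; strong numbers were not always called active; many hits fall short of the cut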
CSC inhib: cancer stem cell viability inhibitors, primary screen, luminescence; inhibition, % at 7.5 µM; AID 2717, 2010; 300,000 tested, 1.1% active; cancer stem cell-like cells viability;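 active = mean at 75% or more and at least half the replicates too; tested in HMLE shEcad cells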;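 also: 0% = median of negative and 100% = median of positive control wells; the first replicate is given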
PABP polyA inh: PABP poly(A) RNA binding inhibitors, primary screen, biochemical, fluorescence polarization, uHTS | 290,000 tested, 1% active | inhibition, % at 35 µM;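 active = 50% or more with normal probe brightness, or confirmed in later tests; about a fifth of its hits are not listed in these tables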;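 also: calls also rest on retests at 20 µM and on dose response follow-up; controls were probe without protein and protein plus probe with vehicle; some compounds called inactive have numbers as strong as hits; many hits fall short of the cut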
Target sequence (P11940 whole entry, looked up): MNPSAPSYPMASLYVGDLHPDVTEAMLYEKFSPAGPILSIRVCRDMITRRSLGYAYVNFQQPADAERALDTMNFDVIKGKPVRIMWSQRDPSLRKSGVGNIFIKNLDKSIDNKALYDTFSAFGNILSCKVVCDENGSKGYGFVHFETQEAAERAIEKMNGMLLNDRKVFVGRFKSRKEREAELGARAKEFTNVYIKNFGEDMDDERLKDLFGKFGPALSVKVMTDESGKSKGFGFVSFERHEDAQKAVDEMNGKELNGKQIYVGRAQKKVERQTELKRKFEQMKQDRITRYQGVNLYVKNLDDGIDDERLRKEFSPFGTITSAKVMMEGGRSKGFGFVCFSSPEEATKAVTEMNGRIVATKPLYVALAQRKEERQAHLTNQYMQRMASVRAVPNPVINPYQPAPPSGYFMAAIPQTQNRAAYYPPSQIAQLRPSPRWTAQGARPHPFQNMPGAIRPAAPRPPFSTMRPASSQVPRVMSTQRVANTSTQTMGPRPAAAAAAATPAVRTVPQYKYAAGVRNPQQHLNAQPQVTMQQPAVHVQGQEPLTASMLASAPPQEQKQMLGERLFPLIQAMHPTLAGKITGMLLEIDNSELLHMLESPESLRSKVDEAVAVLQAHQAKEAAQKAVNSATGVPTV
MT1-MMP act inh RFP: also measured in MT1-MMP act inh; calls as there; RFP signal change, %; measured here: RFP expression control read;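 0 = vehicle wells; hits needed this value within 50% of zero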
Numbers without * were called inactive; i = inactive; / = no result given; & = joins results of further samples; [ ] = dose if it differs, or a comment.

no. | mol | MT1-MMP act inh | MT1-MMP act inh RFP | HIV Env fusion | Yeast UUG start
1 | O=C(NCc1ccccc1)c1cc(C2COCCN2S(=O)(=O)c2ccccc2)on1 (stereo not drawn) | 4 | 6 | -19 | 7
2 | O=C(CSc1nnc(-c2ccccc2Cl)n1Cc1ccco1)Nc1ccc2c(c1)OCCO2 | -4 | -5 | / | -2
3 | Cc1occc1C(=O)N1CCN(c2ccc(Cl)c(Cl)c2)CC1 | -2 | -7 | 25 | -31
4 | O=C(COC(=O)C1=COCCO1)Nc1ccc(Br)cc1Br | 4 | -1 | / | -22
5 | COC(=O)c1cc(NC(=O)c2nccnc2C(=O)O)cc(C(=O)OC)c1 | 0 | 5 | 1 | -5
6 | Nc1nc(-c2cccnc2)nn1S(=O)(=O)c1ccccc1 | -4 | 1 | -41 | 3
7 | O=C(NCc1cccs1)C(=O)NCC(c1ccco1)N1CCN(c2ccccc2F)CC1 (stereo not drawn) | -4 | -11 | 10 | /
8 | CC(NC(=S)Nc1ccc(OC(F)F)cc1OC(F)F)C(C)(C)C (stereo not drawn) | 0 | -5 | 18 | /
9 | CCC(C)(C)NC(=O)C(c1cccn1C)N(C(=O)Cn1nnc2ccccc21)c1ccccc1OC (stereo not drawn) | 2 | 0 | / | 10
10 | O=C(c1ccc(-n2cncn2)c([N+](=O)[O-])c1)N1CCN(S(=O)(=O)c2cccc(F)c2)CC1 | -2 | -3 | 1 | -6
11 | COc1ccc2oc(C(=O)NCc3cc(OC)c(OC)cc3OC)c(C)c2c1 | 0 | -20 | 40 | -7
12 | CCOC(=O)c1sc(NC(=O)CCN2C(=O)C3CCCCC3C2=O)cc1C (stereo not drawn) | 5 | -4 | 11 | -13
13 | COc1ccc(OC)c(/C=C/C(=O)N2C(=O)c3cccc(N)c3C2=O)c1 | 0 | 4 | -13 | /
14 | Cc1ccc(OCC2Cn3c(nc4c3c(=O)[nH]c(=O)n4C)O2)cc1 (stereo not drawn) | -4 | -3 | -62 | -14
15 | O=C(Nc1ccc(N2CCCCC2)cc1)c1cccnc1 | 2 | 3 | / | -22

no. | Rce1 inh | eIF4H inh | CSC inhib | PABP polyA inh
1 | / | / | / | /
2 | i | 2 | -3 | 7
3 | i | -10 | -1 | 16
4 | / | / | 5 | /
5 | i | 1 | -12 | 9
6 | i | / | / | /
7 | i | -3 | 1 | -2
8 | i | -9 | -5 | -12
9 | i | -6 | 1 | -4
10 | i | / | -14 | /
11 | i | -4 | 10 | -4
12 | / | / | / | /
13 | i | 8 | 23 | -2
14 | i | -14 | 15 | -8
15 | i | 3 | -1 | 9

A draw from above in order of SMILES length, lowest first.
no. | mol | MT1-MMP act inh | MT1-MMP act inh RFP | HIV Env fusion | Yeast UUG start
6 | Nc1nc(-c2cccnc2)nn1S(=O)(=O)c1ccccc1 | -4 | 1 | -41 | 3
3 | Cc1occc1C(=O)N1CCN(c2ccc(Cl)c(Cl)c2)CC1 | -2 | -7 | 25 | -31
12 | CCOC(=O)c1sc(NC(=O)CCN2C(=O)C3CCCCC3C2=O)cc1C (stereo not drawn) | 5 | -4 | 11 | -13
5 | COC(=O)c1cc(NC(=O)c2nccnc2C(=O)O)cc(C(=O)OC)c1 | 0 | 5 | 1 | -5
1 | O=C(NCc1ccccc1)c1cc(C2COCCN2S(=O)(=O)c2ccccc2)on1 (stereo not drawn) | 4 | 6 | -19 | 7
10 | O=C(c1ccc(-n2cncn2)c([N+](=O)[O-])c1)N1CCN(S(=O)(=O)c2cccc(F)c2)CC1 | -2 | -3 | 1 | -6

no. | Rce1 inh | eIF4H inh | CSC inhib | PABP polyA inh
6 | i | / | / | /
3 | i | -10 | -1 | 16
12 | / | / | / | /
5 | i | 1 | -12 | 9
1 | / | / | / | /
10 | i | / | -14 | /

Going on with the list.
no. | mol | MT1-MMP act inh | MT1-MMP act inh RFP | HIV Env fusion | Yeast UUG start
16 | CC(C)c1ccc(CN2CCC(C)(Oc3ccc(Cl)cc3)C2)cc1 (stereo not drawn) | 3 | 3 | 22 | -17
17 | CC(=O)Nc1ccc(OCC(O)Cn2c(CO)nc3ccccc32)cc1 (stereo not drawn) | -2 | 2 | 17 | /
18 | COc1ccc(C(=O)NCCc2cn3ccc(C)cc3n2)cc1 | 1 | 5 | 6 | -12
19 | O=C1CCN(Cc2ccc(Br)cc2)CCN1[C@H](CO)Cc1ccccc1 | -2 | -17 | 9 | -10
20 | COc1ccc(-c2cc(=O)oc3c(C)c(OCC(=O)N(C)C)ccc23)cc1 | -4 | -6 | 21 | 14
21 | CCNC(=O)NC(=O)C(C)On1nnc2ccc(S(=O)(=O)N(CC)CC)cc21 (stereo not drawn) | -1 | -4 | -19 | /
22 | CCOC(=O)Cn1nc(C)c(NC(=O)CCc2ccc(OC)cc2)c1C | -2 | 1 | 0 | /
23 | O=C(O)CC/C(=N/NC(=O)c1cccs1)c1ccccc1 | 5 | 7 | 4 | /
24 | O=C(c1cccn2c(=O)c3ccccc3nc12)N1CCN(Cc2ccc3c(c2)OCO3)CC1 | -1 | -2 | -11 | -6
25 | CC1(C)CC(=O)C(C2c3ccccc3S(=O)(=O)c3ccccc32)C(=O)C1 | -1 | 0 | -1 | /
26 | COc1ccc(C(=O)NC(=S)N2CCN(c3ccccc3O)CC2)cc1 | 7 | -2 | -10 | -15
27 | CCn1c(C)nc2cc(C(=O)N/N=C/c3ccc(OC)c(O)c3)ccc21 | 9 | 3 | 5 | /
28 | Cc1cc(C)c2oc(C(=O)NCCc3ccc(S(N)(=O)=O)cc3)cc(=O)c2c1 | 0 | -4 | -5 | 12
29 | COC(=O)C[C@H]1c2cc(F)ccc2S(=O)(=O)N1C(C)C | 1 | 1 | -2 | -12
30 | Cc1ccc(-c2nc(NC(=O)CSc3ncn[nH]3)ns2)cc1 | 1 | -2 | 7 | 1

no. | Rce1 inh | eIF4H inh | CSC inhib | PABP polyA inh
16 | / | / | / | /
17 | i | -4 | 3 | -3
18 | i | 3 | -12 | 3
19 | i | -6 | 1 | -2
20 | i | -5 | 7 | 6
21 | i | -1 | / | 0
22 | i | -8 | / | -9
23 | i | 7 | 0 | -15
24 | i | -6 | / | -4
25 | i | -3 | -5 | 63*
26 | / | / | -8 | /
27 | i | 7 | -8 | 8
28 | / | -2 | -2 | 6
29 | i | / | 2 | /
30 | i | 4 | -17 | 8

The list goes on:
no. | mol | MT1-MMP act inh | MT1-MMP act inh RFP | HIV Env fusion | Yeast UUG start
31 | COc1cccc(NS(=O)(=O)c2cc3c4c(c2)CCC(=O)N4CCC3)c1 | 2 | -10 | 8 | 3
32 | COc1ccc(NS(=O)(=O)c2cccc(C(=O)NCC(c3ccc(F)cc3)N3CCOCC3)c2)cc1 (stereo not drawn) | -2 | -2 | 1 | 13
33 | CC(=O)Nc1ccc(OCC(O)Cn2nc(C)nc2C)cc1 (stereo not drawn) | 2 | 5 | -22 | -22
34 | COc1ccccc1CNC(=O)CN1C(=O)COc2ccc(S(=O)(=O)N3CCCCC3)cc21 | -4 | -1 | 11 | 3
35 | Cc1cc(Nc2cccc([N+](=O)[O-])c2)c2ccccc2n1 | 9 | 8 | 1 | /
36 | COc1ccc(NC(=O)Nc2ccc3c(c2)C(=O)N([C@H](C)CO)C[C@H](C)[C@@H](CN(C)C(=O)Nc2c(C)noc2C)O3)cc1 | 2 | 3 | -2[16.7 µM] | -6
37 | COc1cccc(C2=NOC(C(=O)Nc3cccnc3Cl)C2)c1OC (stereo not drawn) | 1 | 1 | 7 | /
38 | Cc1cn(S(=O)(=O)c2cc(Br)ccc2Br)cn1 | -3 | 1 | -8 | -39
39 | COc1cc(-c2ccc3oc(-c4ccsc4)cc3c2)cc(OC)c1OC | -2 | -3 | -66 | -7
40 | N#Cc1c(-c2cccs2)cc(-c2cccs2)[nH]c1=O | -3 | 2 | 5 | -4
41 | COc1ccc([C@@H]2C[C@H]3[C@@H](CN2S(=O)(=O)c2ccccc2)C(=O)C[C@@H](c2cccc4ccccc24)N3S(=O)(=O)c2ccc(C)cc2)cc1 | 1 | 1 | -243 | -22
42 | O=C(Cn1cnc2c(NCc3ccccc3)ncnc21)NCc1nc2ccccc2[nH]1 | 3 | 6 | 11 | 1
43 | O=C(Cc1ccccc1)Nc1ccc(NC(=O)c2cccc(Cl)c2)cc1 | 2 | -1 | -7 | /
44 | CCOc1ccccc1N1CCN(C(=O)CC(C)(C)C)CC1 | 0 | 5 | 11 | -10
45 | C[C@@H]1CN([C@H](C)CO)C(=O)c2cc(NC(=O)Cc3cn(C)c4ccccc34)ccc2O[C@H]1CN(C)S(=O)(=O)c1ccc(F)cc1 | -2 | 0 | -6[16.7 µM] | -4&-11

no. | Rce1 inh | eIF4H inh | CSC inhib | PABP polyA inh
31 | i | / | / | /
32 | i | 0 | 9 | 6
33 | i | -14 | / | -10
34 | i | / | 0 | /
35 | i | 7 | 5 | 3
36 | / | / | / | /
37 | / | 1 | -9 | -13
38 | i | 9 | -2 | -9
39 | i | / | 5 | /
40 | i | 12 | 8 | -6
41 | / | / | / | /
42 | / | / | / | /
43 | i | -11 | -5 | -7
44 | i | 11 | 1 | -5
45 | / | / | / | /

(next part)
no. | mol | MT1-MMP act inh | MT1-MMP act inh RFP | HIV Env fusion | Yeast UUG start
46 | CC(C)[C@H](NC(=O)c1ccccc1)C(=O)OCC(=O)NCc1ccc(F)cc1 | 0 | 1 | 17 | -10
47 | COc1ccc(-c2oc(=O)c3cc(OC)c(OC)cc3c2-c2cc(F)cc(OC)c2)cc1 | 0 | -8 | 13 | -9
48 | CCOc1ccccc1-n1c(SCC(=O)N2CCCC2)nnc1-c1ccc(O)cc1 | 3 | 1 | / | -31
49 | COc1nc(-c2ccc(Cl)cc2)ccc1-c1noc(-c2ccco2)n1 | 1 | 3 | -11 | -10
50 | CCOC(=O)c1nn(-c2ccc(C)c(Cl)c2)c(=O)c(C#N)c1C | 3 | 2 | -15 | -2
51 | CC1CCCN(S(=O)(=O)c2ccc(C(=O)Nc3nnc(-c4ccco4)o3)cc2)C1 (stereo not drawn) | -2 | -2 | -3 | -20
52 | CCCN(CC1CC1)C(=O)COC(=O)c1ccc(C)cc1O | -2 | 2 | 7 | -3
53 | Cc1ccc2[nH]c3c(c2c1)CN(C(=O)CN1CCN(Cc2ccc4c(c2)OCO4)CC1)CC3 | -12 | -6 | / | -3
54 | CC(C)(C)NC(=O)COc1ccc(CNCc2cccnc2)cc1 | -1 | -2 | 29 | /
55 | N#CCSc1nc2cc(C(=O)N3CCC(C(N)=O)CC3)ccc2c2nc3ccccc3n12 | -5 | -15 | / | -12
56 | NC(=O)C(c1cccc(Cl)c1)c1ncc(C(F)(F)F)cc1Cl (stereo not drawn) | 4 | 4 | -6 | -6
57 | COc1cc2[nH]c(=O)n(Cc3ccc(C(=O)NC4CCCC4)cc3)c(=O)c2cc1OC | -5 | -6 | 5 | -12
58 | Cc1ccc2nc(-c3ccccc3)cc(C(=O)NCC3CCCO3)c2c1 (stereo not drawn) | -1 | -3 | -10 | -3

no. | Rce1 inh | eIF4H inh | CSC inhib | PABP polyA inh
46 | i | -4 | -3 | -3
47 | / | / | 4 | /
48 | i | 7 | -7 | -2
49 | i | -18 | -10 | 43
50 | i | 4 | 1 | 1
51 | i | 15 | 30 | -2
52 | / | / | -16 | /
53 | i | 21 | 4 | 22
54 | i | -2 | -5 | 7
55 | i | -1 | 25 | 1
56 | i | -7 | -15 | -2
57 | i | -16 | 10 | 1
58 | i | 4 | -2 | -7
